TRPML1 inh: qHTS for Inhibitors of the Human Mucolipin Transient Receptor Potential 1 (TRPML1); Mucolipin-1 (Homo sapiens), Q9GZU1; TRPML1-inducible cells, Ca2+ dye fluorescence, FDSS; stronger effect = lower value; inhibition of EC80 agonist-evoked calcium signal; activity change, negative = inhibition, % (no concentration beside the values); actives 0.02% (n = 390,000); AID 624415, 2012; in the data active means activity change below about -50%; inconclusive means about -30% to -50%; inactive means above about -30%;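 also: stimulus is agonist 54-4 at its EC80 concentration; % is scaled to controls: 0 for no effect and ±100 for the full control effect; compound concentration not given in the record; the text of the record puts the active cut at -80%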
Target sequence (Q9GZU1 whole entry, looked up): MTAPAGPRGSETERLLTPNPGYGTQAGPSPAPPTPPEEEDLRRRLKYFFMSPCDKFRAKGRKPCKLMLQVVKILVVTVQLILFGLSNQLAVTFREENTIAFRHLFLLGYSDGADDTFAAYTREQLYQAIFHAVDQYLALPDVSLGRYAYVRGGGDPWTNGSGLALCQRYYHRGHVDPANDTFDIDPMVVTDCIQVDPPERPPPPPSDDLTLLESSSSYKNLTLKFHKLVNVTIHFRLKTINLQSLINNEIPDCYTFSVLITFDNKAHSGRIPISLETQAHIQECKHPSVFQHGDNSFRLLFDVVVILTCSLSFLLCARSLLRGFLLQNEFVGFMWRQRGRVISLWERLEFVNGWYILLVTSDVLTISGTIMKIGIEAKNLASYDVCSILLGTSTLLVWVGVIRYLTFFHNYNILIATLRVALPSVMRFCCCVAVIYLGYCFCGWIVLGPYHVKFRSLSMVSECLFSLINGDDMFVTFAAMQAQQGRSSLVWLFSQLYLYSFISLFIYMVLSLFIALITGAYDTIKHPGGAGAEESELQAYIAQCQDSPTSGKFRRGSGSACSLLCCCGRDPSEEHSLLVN
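Calcium fluorescence in TRPML1-DL cells induced overnight with Tet: a 110 s read after compound pin addition, then a 110 s antagonist read after challenge with 54-4 at 4 uM final (EC80).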
CtBP-E1A inh: qHTS Assay for Inhibitors of the CtBP/E1A Interaction; activity change, % (no concentration beside the values); actives 0.49% (n = 340,000); AlphaScreen GST-E1A/His-CtBP binding, 1536-well; stronger effect = lower value; control for the full effect not named in the record; CtBP / adenovirus E1A interaction (AlphaScreen); AID 651724, 2012; in the data active means activity change below about -65%; inconclusive means about -30% to -65%; inactive means above about -30%; also: % is scaled to controls: 0 for no effect and ±100 for the full control effect; compound concentration not given in the record
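GST-E1A and His-tagged CtBP (125 nM each as 5X stock) were preincubated with pin-transferred compound for 2 h at 37 °C in the dark, then glutathione donor and nickel acceptor beads were added for 1 h before AlphaScreen reading.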
TRPML1 agonist: qHTS for Agonists of the Human Mucolipin Transient Receptor Potential 1 (TRPML1) | TRPML1-expressing cells, Ca2+ dye fluorescence, FDSS; host cell line not named in the record; reference of the full effect not given here | activation, % (no concentration beside the values) | actives 0.12% (n = 410,000) | AID 624414, 2012; in the data active = activation above about 50%; inconclusive = about 30% to 50%; inactive = below about 30%; also: 0% is about no effect; the text of the record puts the active cut at 80%
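Tetracycline-induced TRPML1-DL cells are seeded and incubated overnight before loading with a no-wash Ca2+ dye and quencher. Agonist activity is taken from the 110 s fluorescence read following compound pin-transfer on an FDSS, before EC80 54-4 challenge.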
Six1-Eya2 blk: qHTS Assay for Inhibitors of the Six1/Eya2 Interaction; actives 0.56% (n = 360,000); activity change, % (concentration not given with the values); Homeobox protein SIX1 (Homo sapiens) + Protein phosphatase EYA2 (Homo sapiens), …; AlphaScreen GST-Six1/His-Eya2 binding, biochemical; stronger effect = lower value; control for the full effect not named in the record; AID 651725, 2012; in the data active = activity change below about -65%; inconclusive = about -30% to -65%; inactive = above about -30%; also: % is scaled to controls: 0 for no effect and ±100 for the full control effect
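Compounds are tested against tagged Six1 and Eya2 proteins bridged by glutathione donor and nickel acceptor beads; after a one-hour incubation at 37 °C without light, AlphaScreen emission is recorded.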
D2 ag: Beta-Arrestin HTS for Positive Allosteric Modulators of the Human D2 Dopamine Receptor: Agonists. D(2) dopamine receptor (Homo sapiens), P14416. DiscoveRx PathHunter D2 beta-arrestin, luminescence, 90 min; 100% = 57 uM dopamine signal. activation, % (test concentration not listed). actives 0.084% (n = 360,000). AID 624465, 2012; in the data active = activation above about 40%; inconclusive = about 15% to 40%; inactive = below about 15%; also: compound concentration not given in the record; the text of the record calls up to 30% inactive
Target sequence (P14416 whole entry, looked up): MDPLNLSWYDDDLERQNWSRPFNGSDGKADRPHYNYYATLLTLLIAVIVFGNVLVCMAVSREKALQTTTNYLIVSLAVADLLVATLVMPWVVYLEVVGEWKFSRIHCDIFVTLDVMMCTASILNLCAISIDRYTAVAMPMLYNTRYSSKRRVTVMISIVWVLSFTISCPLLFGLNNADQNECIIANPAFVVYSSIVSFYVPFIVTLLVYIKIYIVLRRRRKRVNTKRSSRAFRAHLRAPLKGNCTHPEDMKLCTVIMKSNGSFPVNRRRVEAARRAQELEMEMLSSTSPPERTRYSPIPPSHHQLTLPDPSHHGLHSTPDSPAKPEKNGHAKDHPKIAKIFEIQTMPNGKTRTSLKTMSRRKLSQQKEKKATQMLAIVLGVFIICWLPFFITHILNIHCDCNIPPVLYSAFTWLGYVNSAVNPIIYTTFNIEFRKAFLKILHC
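DiscoveRx PathHunter D2 beta-arrestin cells (2,100/well) attached overnight, then compound-stimulated 90 min at 37 C in HBSS/10 mM HEPES/0.1% Tween-20 buffer; beta-galactosidase complementation read by luminescence after 1 h at ambient temperature. Dopamine 57 uM final (EC100) as control.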
PINK1 modulator: A Quantitative High throughput Screen to Identify Chemical Modulators of PINK1 Expression | PINK1 immunofluorescence, high-content cytometry, 24 h | actives 0.2% (n = 410,000) | Potency, µM (highest dose often 76.6 µM), without a hit: top-dose activation (PINK1 increase), usual class: activators; active = well fitted activation curve with a large enough effect; inconclusive = small, poorly fitted or top-dose-only effect; inactive = flat fitted curve, though single readings scatter; cell line not stated here;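 also: potency is read from the fitted curve at half-maximal effect; % of control where 0% means no effect; nearly all actives have a fitted effect of over 65% in size; a mitochondrial uncoupler was the plate control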
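Decision-based qHTS: stable cells, 24 h exposure to five compound concentrations, CCCP as control. Fixed cells stained for PINK1 plus nuclear, mitochondrial and cell markers, cytometer read.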
The depositor's hits bear a star; ? = inconclusive; . = no result given; & = joins results of further samples; [ ] = another dose, or the depositor's remark. This is a random part of the collection. Share with any hit: about 1%.

cpd	Molecule	TRPML1 inh	CtBP-E1A inh	TRPML1 agonist	Six1-Eya2 blk	D2 ag	PINK1 modulator
1	CCC(=O)N1CCc2cc(S(=O)(=O)NC(CC(C)C)C(=O)Nc3cc(C)ccc3OC)ccc21 (configuration not stated)	53	.	0.6	.	.	2.1%
2	Cc1cc(N2CCCc3ccccc32)n2ncnc2n1	-5	8	0.3	13	3.9	-0.2%
3	Cc1ccc(S(=O)(=O)NCC(=O)OC(C)C(=O)NC(=O)NC2CCCCC2)cc1C (configuration not stated)	28	.	1.2	1	-3.0	-1.2%
4	C/C(=N\Nc1ccc(Cl)c(C(=O)O)c1)c1cc2ccccc2o1	-16	6	-0.6	-20	-0.6	1.2%
5	COc1ccccc1C(=O)Nc1nnc(-c2ccco2)s1	-5	7	0.8	-7	0.9	.
6	CCN(C(=O)COC(=O)CCOc1cccc(C)c1)c1c(N)n(Cc2ccccc2)c(=O)[nH]c1=O	3	1	0.1	-4	-5.9	2.4%
7	O=C(CSc1nccc(=O)[nH]1)Nc1cccc(S(=O)(=O)N2CCOCC2)c1	21	4	-0.9	0	-0.1	1.4%
8	Cc1ccccc1-n1nnnc1SCC(=O)NC1CC1	-2	0	-0.9	9	-1.9	0.5%
9	Oc1ccc(NCc2ccccc2OCc2ccccc2F)cc1	-6&44	?	0.9&1.0	-4	14	6.8%&1.2%
10	Cc1ccc(C(=O)NCC(=O)OCCOc2cccc(Cl)c2)cc1	-8	13	1.1	-8	-0.6	0.7%
11	O=C(N/N=C/c1c(Cl)cccc1Cl)c1ccccc1F	36	10	0.9	-2	-5.7	0.1%
12	O=C(CCC(=O)N1CCN(c2ccccn2)CC1)Nc1nnc(C(F)(F)F)s1	-17	0	0.2	-5	1.4	2.1%
13	Cc1ccccc1C(=O)Nc1ccc(C(=O)N/N=C/c2ccc(O)cc2)cc1	6	-17	-1.2	?	-5.8	2.5%
14	COc1ccc(NC(=O)c2cc(-c3ccccc3)nc3c2cnn3C(C)C)c(OC)c1	48	.	1.7	-12	-5.8	2.9%
15	Cc1cccc(NC(=O)CCc2nnc3ccc(NCc4ccco4)nn23)n1	-5	.	0.3	-9	2.0	-0.9%
16	COc1cc(OC)cc(C(=O)NCC(=O)OCC(=O)c2cc(C)n(Cc3ccco3)c2C)c1	24	0	1.0	-28	-4.1	3.4%
17	NC(=NCc1ccco1)NC(=O)c1ccc(Cl)cc1	4	-3	-0.8	-7	-1.8	0.2%
18	N=C1SC(c2ccccc2)C(=O)N1c1ncc(Cc2ccccc2)s1 (configuration not stated)	-13	7	0.0	-6	-3.9	6.2%
19	O=C(NCc1cccs1)C1CCCN1C(=O)Nc1cccc(Cl)c1 (configuration not stated)	-14	0	-0.7	14	-2.5	-1.8%
20	CCN(C(=O)c1cnc(N2CCOCC2)c2ccccc12)c1cc(C)ccc1C	11	.	-0.1	.	.	0.5%
21	CCn1nc(C(=O)Nc2ccc(S(=O)(=O)Nc3nccs3)cc2)c2ccccc2c1=O	-2	-12	-0.3	-10	-0.6	-0.2%
22	CCOC(=O)N1CCC(N(C(=O)Nc2ccccc2)C(C)CC)CC1 (configuration not stated)	-17	5	0.8	2	-1.8	0.5%[38.3 µM]
23	COc1ccccc1-c1nc2ccc(Cl)cc2c(=O)n1O	29	.	-0.2	1	2.4	1.9%
24	CC(C)(C)c1ccc(S(=O)(=O)NCC2CCCO2)cc1 (configuration not stated)	-26	-17	1.7	8	-2.8	6.7%
25	O=C(NN1C(=O)c2ccccc2NC1c1cccnc1)c1ccc([N+](=O)[O-])cc1 (configuration not stated)	8	-22	1.4	-3	8.9	0.4%
26	O=C(NN1CCOCC1)c1ccccc1Br	3	7	-0.6	7	-2.3	-0.3%
27	CCc1cc(CNC(=O)C2CCC(=O)N(Cc3ccc(Cl)cc3)C2)on1 (configuration not stated)	-1	1	0.1	3	-4.1	-1.6%
28	Cc1nc(SCC(=O)Nc2cccc(Cl)c2)n[nH]1	-11	0	-0.9	-3	-2.7	1.7%
29	Cn1c(N2CCN(S(=O)(=O)c3ccc(F)cc3)CC2)nc2ccccc21	-1	0	-1.5	15	1.0	2.5%
30	CCOc1ccc(CCNC(=O)C2CC(=O)N(C3CCCC3)C2)cc1OCC (configuration not stated)	5	8	-0.4	-2	-2.9	.

In a second layout: entries from further up
18	N=C1SC(c2ccccc2)C(=O)N1c1ncc(Cc2ccccc2)s1 (configuration not stated)
19	O=C(NCc1cccs1)C1CCCN1C(=O)Nc1cccc(Cl)c1 (configuration not stated)
20	CCN(C(=O)c1cnc(N2CCOCC2)c2ccccc12)c1cc(C)ccc1C
21	CCn1nc(C(=O)Nc2ccc(S(=O)(=O)Nc3nccs3)cc2)c2ccccc2c1=O
22	CCOC(=O)N1CCC(N(C(=O)Nc2ccccc2)C(C)CC)CC1 (configuration not stated)
23	COc1ccccc1-c1nc2ccc(Cl)cc2c(=O)n1O
24	CC(C)(C)c1ccc(S(=O)(=O)NCC2CCCO2)cc1 (configuration not stated)
25	O=C(NN1C(=O)c2ccccc2NC1c1cccnc1)c1ccc([N+](=O)[O-])cc1 (configuration not stated)
26	O=C(NN1CCOCC1)c1ccccc1Br
27	CCc1cc(CNC(=O)C2CCC(=O)N(Cc3ccc(Cl)cc3)C2)on1 (configuration not stated)
Compound,18,19,20,21,22,23,24,25,26,27
TRPML1 inh,-13,-14,11,-2,-17,29,-26,8,3,-1
CtBP-E1A inh,7,0,.,-12,5,.,-17,-22,7,1
TRPML1 agonist,0.0,-0.7,-0.1,-0.3,0.8,-0.2,1.7,1.4,-0.6,0.1
Six1-Eya2 blk,-6,14,.,-10,2,1,8,-3,7,3
D2 ag,-3.9,-2.5,.,-0.6,-1.8,2.4,-2.8,8.9,-2.3,-4.1
PINK1 modulator,6.2%,-1.8%,0.5%,-0.2%,0.5%[38.3 µM],1.9%,6.7%,0.4%,-0.3%,-1.6%

28	Cc1nc(SCC(=O)Nc2cccc(Cl)c2)n[nH]1
29	Cn1c(N2CCN(S(=O)(=O)c3ccc(F)cc3)CC2)nc2ccccc21
30	CCOc1ccc(CCNC(=O)C2CC(=O)N(C3CCCC3)C2)cc1OCC (configuration not stated)
Compound,28,29,30
TRPML1 inh,-11,-1,5
CtBP-E1A inh,0,0,8
TRPML1 agonist,-0.9,-1.5,-0.4
Six1-Eya2 blk,-3,15,-2
D2 ag,-2.7,1.0,-2.9
PINK1 modulator,1.7%,2.5%,.

Later entries.
cpd	Molecule	TRPML1 inh	CtBP-E1A inh	TRPML1 agonist	Six1-Eya2 blk	D2 ag	PINK1 modulator
31	O/N=C/c1ccccc1OCc1ccccc1Cl	-8	12	-0.3	1	0.7	13%
32	CCCCCC(=O)NC(=S)Nc1ccc(Cl)cn1	-7	.	1.5	14	-5.6	0.4%
33	COc1ccc(NS(=O)(=O)CC23CCC(CC2=O)C3(C)C)cc1 (configuration not stated)	-8	12	2.5	2	-2.4	5.7%[38.3 µM]
34	Cc1ccc(NS(=O)(=O)c2cccs2)cc1S(=O)(=O)N1CCCCCC1	10	0	1.9	21	3.2	0.3%
35	Cc1ccccc1N(CC(=O)NCCc1ccccc1)C(=O)CCC(=O)Nc1ccccn1	17	-7	0.9	-12	-2.3	-2.9%
36	CNC(=O)c1cc2c(=O)n3cccc(C)c3nc2n(C(C)C)c1=N	10	-3	-0.4	-4	0.6	0.0%
37	CCOc1ccc(C(=O)COC(=O)C2CCN(c3ccc(C(F)(F)F)cn3)CC2)cc1	0	4	-0.2	12	0.8	-0.7%
38	CCOc1ccc(NC(=O)CSc2nnc(CCNC(=O)c3ccc(OC)cc3)n2C)cc1	-5	2	0.5	1	-3.0	0.4%[38.3 µM]
39	Cc1ccc(OCC(=O)Nc2ccncc2)c(C)c1	-15	4	1.9	0	4.9	-2.7%
40	COC(=O)c1ccc2c(c1)N(Cc1ccccc1)C(=O)c1ccccc1S2(=O)=O	12	.	-0.1	.	.	1.3%
41	COc1cc2c(cc1NC(=O)CCCN1C(=O)CCC1=O)oc1ccccc12	7	-8	-0.6	1	8.1	0.5%
42	CC(NC(=O)CN1CCCC1)C12CC3CC(CC(C3)C1)C2 (configuration not stated)	-11	-1	-0.3	6	-0.8	1.0%[38.3 µM]
43	CC(=O)c1cccc(Nc2nc(-c3cccc([N+](=O)[O-])c3)cs2)c1	0	-4	2.2	2	-8.2	-0.8%
44	COC(=O)C1(c2ccccc2)NC(c2cccs2)C2C(=O)N(C)C(=O)C21 (configuration not stated)	72	0	-0.6	3	-0.9	0.7%
45	O/N=C(\C[n+]1ccccc1)c1ccc(Br)cc1	-20	-4	1.4	9	-4.0	1.5%
46	CCCOc1ccc(CC(CC(=O)O)(C(=O)O)C(=O)O)cc1	-6	4	-1.1	2	-2.3	-0.3%
47	CC1(C(=O)Nc2ccc3c(c2)OCCO3)CCN1Cc1ccc2ccccc2c1 (configuration not stated)	.	?	-0.4	-6	-4.3	-0.4%
48	COC(=O)c1cc(-c2ccc(Cl)cc2Cl)n[nH]1	27	.	1.5	-2	-2.9	0.7%
49	CC1(C)CC(NC(=O)c2ccccc2)CC(C)(C)N1	18	-4	-0.6	21	-6.3	-0.9%
50	NC(=O)CC(NC(=O)Cc1cccc2ccccc12)c1ccc(N2CCC(Br)CC2)c([N+](=O)[O-])c1 (configuration not stated)	-2	-15	0.1	-14	-6.5	1.5%
51	NC(=O)C1CCN(C(=S)c2cccs2)CC1	3	2	-0.7	-3	-3.0	-0.5%
52	CC12CC(NC(=O)N1c1ccc(C(=O)N3CCN(c4ccc(F)cc4)CC3)cc1)c1ccccc1O2 (configuration not stated)	6	-3	-0.5	-7	-1.8	-0.8%
53	Nc1nc(Sc2c([N+](=O)[O-])cc(C(F)(F)F)cc2[N+](=O)[O-])n[nH]1	-7	-1	-0.3	-23	13	-2.9%
54	O=C(CCNC(=O)c1ccccc1Cl)NNC(=O)c1ccccc1O	9	-5	-0.8	-1	-16	3.4%
55	CS(=O)(=O)N(CC(=O)N1CCOCC1)c1cc(C(F)(F)F)ccc1Cl	.	.	.	-17	-0.5	1.9%
56	CCC(C)NC(=O)C1CCC(CNS(=O)(=O)c2ccc3c(c2)CC(C)N3C(=O)C2CC2)CC1 (configuration not stated)	-8	-18	0.0	-5	-1.5	-0.2%

Two compounds drawn at random from those above:
cpd	Molecule	TRPML1 inh	CtBP-E1A inh	TRPML1 agonist	Six1-Eya2 blk	D2 ag	PINK1 modulator
37	CCOc1ccc(C(=O)COC(=O)C2CCN(c3ccc(C(F)(F)F)cn3)CC2)cc1	0	4	-0.2	12	0.8	-0.7%
56	CCC(C)NC(=O)C1CCC(CNS(=O)(=O)c2ccc3c(c2)CC(C)N3C(=O)C2CC2)CC1 (configuration not stated)	-8	-18	0.0	-5	-1.5	-0.2%

Screens deposited in PubChem BioAssay by National Center for Advancing Translational Sciences (NCATS).
